Bioassay records (PubChem BioAssay)
PMP22 txn prim – Cell-based coincidence reporter assay to measure PMP22 gene transcription in S16 Pmp22-F2sN cells - Primary screen. S16 Pmp22-F2sN Schwann cells (luciferase reporters placed in the Pmp22 gene), FLuc/NLuc coincidence luminescence, 24 h. AID 1508649, 2021. actives 2% (n = 43,000). Potency, µM (top dose mostly 57.5 µM), for inactives: at the top dose activity change, negative = inhibition, actives largely listed as inhibitors; active = clear falling dose curves in both reporters; inconclusive = both reporters move, but less clearly or upward; inactive = either reporter flat; the % is the NLuc reporter signal; further: on the % scale 0 is the no-effect control and ±100 the full control effect; some results filed as inactive show a strong effect at the top dose
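Reporter cells (S16 Pmp22-F2sN, 500–1,000 per well) exposed to compounds for 24 h, 37C, 5% CO2; lysis with FLuc read after 10 min, then Stop&Glo and NLuc read after 10 min.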
HTT promoter inh – Primary qHTS for Identification of Small Molecule Inhibitors of Huntingtin Promoter Activity; HEK293 HTT promoter firefly luciferase reporter (activity 0% = vehicle and -100% = no light), 24 h; Potency, µM (highest dose often 57.5 µM), without a hit: at the highest dose activity change, negative = inhibition, usual class: inhibitors; actives 0.93% (n = 48,000); AID 1508623, 2021; active means well fitted inhibition curve with a large enough effect; inconclusive means small, poorly fitted or top-dose-only effect; inactive means no such curve, though single readings can be large or run the other way; further: nearly all actives have a fitted effect of over 50% in size
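HEK293 Fluc reporter, 2,500 cells/well, 24 h pre-culture; cpds up to 57.5 uM final, 24 h 37 degrees C; Dual-Glo, 10 min RT; normalized vehicle = 0%, zero RLU = -100%.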
* = called active by the depositor; ? = inconclusive; . = not tested or not shown; [ ] = another dose, or the depositor's remark. Potency means the concentration at half of the fitted maximal effect.

SMILES	PMP22 txn prim	HTT promoter inh
O=S(=O)(c1ccc(Br)cc1)c1nc(-c2cccs2)oc1SCc1ccc(F)cc1	?	?
O=C(Nc1nc2ccc(S(=O)(=O)N3CCCC3)cc2s1)c1cccc(F)c1	0%	-9%
C=CCc1c(C)nc2nc(SCC(=O)Nc3ccccc3CC)nn2c1C	-13%	-1%
COc1cccc(NC(=O)c2cc(CN3CCOCC3)on2)c1	-2%	36%[activator]
Cc1onc(-c2ccccc2Cl)c1C(=O)Oc1cc(F)cc(F)c1	-5%	-35%
Cc1ccc(NC(=O)C(Cc2ccccc2)NS(=O)(=O)c2cccc3nsnc23)c(C)c1 (centres undefined)	?	?
Cc1cccc(C)c1NC(=O)c1cc(S(=O)(=O)N2CCCc3ccccc32)ccc1F	?	?
Cc1ccc(NC(=O)C2CCCN2S(=O)(=O)c2cccc3nsnc23)c(Br)c1 (centres undefined)	-12%	?
CCc1nn(CCCC(=O)NCc2ccccc2OC)c(=O)c2cc3occc3n12	-3%	-16%
COc1ccc(N2C(=O)CS(=O)(=O)C23C(=O)N(Cc2ccc(F)cc2)c2ccc(C)cc23)cc1 (centres undefined)	-6%	?
O=C(COc1ccc(F)cc1)Nc1ccc2nc(SCCOc3ccccc3)sc2c1	-8%	-14%
COc1ccc(OCc2nc3ccccc3n2Cc2ccccc2Cl)cc1	1%	-18%
CCCCN(C)C(=O)CCC(=O)NNc1nc2ccccc2c2nc(C)nn12	4%	-7%
CCCOc1ccc(C(=O)Nc2cc3c(cc2N2CCOCC2)n(C)c(=O)n3C)cc1	-23%	0%
CCc1noc(-c2ccc(N3CCC(C)CC3)c([N+](=O)[O-])c2)n1	?	7%
Cc1ccccc1Cn1c(=O)n(CCCCC(=O)NCc2ccc3c(c2)OCO3)c(=O)c2ccccc21	?	-23%
CCc1nc(-c2cc(S(=O)(=O)N3CCN(c4ccc(OC)cc4)CC3)ccc2OC)no1	-6%	-13%
CCc1ccc(N(CC)C(=O)c2sc3nc4n(c(=O)c3c2C)CCCC4)cc1	-23%	-22%
Cc1ccc(-c2ccc(CCC(=O)O)n2-c2ccc(C)c(Cl)c2)cc1	-29%	36%[activator]
COc1ccc(OC)c(NC(=O)CCn2cnnn2)c1	-2%	-5%
O=C(Nc1ccc(F)c(Cl)c1)c1cc(S(=O)(=O)NCc2ccc3c(c2)OCO3)ccc1F	?	?
CCc1ccc(OCc2cc(=O)n3cc(C)sc3n2)cc1	?	-1%
Cc1ccccc1OCCn1c(CCNC(=O)C2CCCCC2)nc2ccccc21	-4%	?
CCC(=O)N1CCc2cc(Br)cc(S(=O)(=O)NCc3ccccc3)c21	-16%	-9%
CCN(c1cccc(C)c1)S(=O)(=O)c1cc2c(cc1C)n(C)c(=O)c(=O)n2C	-21%	-6%
Cc1ccc(C)c(Cn2c3ccccc3c3cnn(CC(=O)NC4CCC(C)CC4)c(=O)c32)c1 (centres undefined)	-8%	0%
COc1cc(OC)c(N(C)C(=O)C2CCCN(c3ncnc4c3nc3n4CCCCC3)C2)cc1Cl (centres undefined)	-14%	-24%
COc1ccc(N(Cc2cc3cccc(C)c3[nH]c2=O)C(=O)c2cccc(Cl)c2)cc1	?	?
Cc1cc(C)cc(OCCCn2c(CCNC(=O)C3CCCCC3)nc3ccccc32)c1	?	?
COc1ccc(CNC(=O)CCn2nc(C)c3c(C)n(-c4ccccc4)nc3c2=O)cc1OC	-16%	-7%
CCc1ccc(NC(=O)CN2C(=O)CCSc3ccccc32)cc1	22%	-20%
COc1ccc(NC(=O)c2cccc(N3CCCS3(=O)=O)c2)cc1OC	5%	43%[activator]
CCOC(=O)C1CCCN(C(=O)c2nn(-c3ccc(C)cc3)c(=O)c3c2c2ccccc2n3C)C1 (centres undefined)	?	-11%
Cc1ccc(/C=N/n2c(-c3ccccc3)csc2=S)cc1	.	-2%
CCN(CC)CCNC(=O)COc1ccc(OC)cc1	.	7%
Cc1ccc(CSc2ncc(Cl)c(C(=O)Nc3nc4ccc(C)cc4s3)n2)cc1	3%	1%
COc1ccc(-c2cc(C)no2)cc1S(=O)(=O)N1CCN(c2ccc(C(C)=O)cc2)CC1	?	-26%
CCOC(=O)c1c(C)[nH]c(C)c1S(=O)(=O)N1CCCC(C(=O)N2CCN(c3cccc(Cl)c3)CC2)C1 (centres undefined)	?	?
Cc1cccc(NC(=O)c2ccc3[nH]c(C)cc(=O)c3c2)c1	?	18%
Cn1c(=O)c(=O)n(C)c2cc(N3CCCC3)c(NC(=O)c3ccc(C(C)(C)C)cc3)cc21	-18%	-12%

Among those listed so far, 8 contain a Cl atom.
SMILES	PMP22 txn prim	HTT promoter inh
Cc1onc(-c2ccccc2Cl)c1C(=O)Oc1cc(F)cc(F)c1	-5%	-35%
COc1ccc(OCc2nc3ccccc3n2Cc2ccccc2Cl)cc1	1%	-18%
Cc1ccc(-c2ccc(CCC(=O)O)n2-c2ccc(C)c(Cl)c2)cc1	-29%	36%[activator]
O=C(Nc1ccc(F)c(Cl)c1)c1cc(S(=O)(=O)NCc2ccc3c(c2)OCO3)ccc1F	?	?
COc1cc(OC)c(N(C)C(=O)C2CCCN(c3ncnc4c3nc3n4CCCCC3)C2)cc1Cl (centres undefined)	-14%	-24%
COc1ccc(N(Cc2cc3cccc(C)c3[nH]c2=O)C(=O)c2cccc(Cl)c2)cc1	?	?
Cc1ccc(CSc2ncc(Cl)c(C(=O)Nc3nc4ccc(C)cc4s3)n2)cc1	3%	1%
CCOC(=O)c1c(C)[nH]c(C)c1S(=O)(=O)N1CCCC(C(=O)N2CCN(c3cccc(Cl)c3)CC2)C1 (centres undefined)	?	?

(further entries)
SMILES	PMP22 txn prim	HTT promoter inh
CCOC(=O)c1c(C)oc2nc(C)nc(NCC3CCN(Cc4ccc(Cl)cc4)CC3)c12	-10%	-8%
COC(=O)c1ccc(NC(=O)CC2C(=O)N(c3ccccc3)C(=O)N2Cc2ccco2)cc1 (centres undefined)	4%	-19%
CN(C)c1ccc(C(CNS(=O)(=O)c2ccc(Cl)cc2)N2CCCC2)cc1 (centres undefined)	?	-16%
O=C(CNC(=O)c1ccccc1F)OCc1cc(=O)n2ccsc2n1	-23%	-5%
COc1ccc(NC(=O)c2cc3c(=O)n(Cc4cccs4)ccc3nc2C)c(OC)c1	-25%	-6%
CCOc1ccc(NC(=O)CCc2c(C)nc3c(c(C)nn3-c3ccccc3)c2C)cc1	-20%	10%
Cc1cc(C)c(Cn2c(=O)n(CCCCCC(=O)NCc3ccc4c(c3)OCO4)c(=O)c3sccc32)c(C)c1	-29%	-1%
Cc1nn2c(=O)cc(COC(=O)c3ccc(C(C)(C)C)cc3)nc2s1	?	-13%
Cc1nc2nc(NC(=O)c3ccc(C(C)(C)C)cc3)[nH]n2c(=O)c1Cl	25%	-2%
O=C(CN1C(=O)COc2ccc(S(=O)(=O)N3CCCC3)cc21)NCCc1ccc(Cl)cc1	-31%	-26%
COC(=O)c1c(C)sc(-c2c(-c3ccc4c(c3)OCCO4)[nH]c3[nH]c(=O)[nH]c(=O)c23)c1O	-35%	0%
COC(=O)c1sccc1S(=O)(=O)N(CC(=O)NCc1ccc(C)cc1)c1ccc(Cl)cc1	-3%	-7%
Cc1[nH]c(=O)[nH]c(=O)c1C1N2CC3(C(C)C)CN1CC(C(C)C)(C2)C3=O (centres undefined)	5%	-11%
Cc1ccc(CS(=O)(=O)Cc2ccc(C(=O)NCCc3ccc(Cl)cc3)o2)cc1	-10%	-4%
CCC1CN(C(=O)N2CCC(C(=O)NCc3cccs3)CC2)c2ccccc2O1 (centres undefined)	-4%	-25%
CCOC(=O)c1ccccc1NC(=O)CSc1cc(C)[nH]c(=O)n1	?	-4%
Cc1ccc(-n2nc(C(=O)Nc3ccc(Br)cc3C)c(=O)n(C)c2=O)cc1	-2%	-4%
CCOc1ccc(NC(=O)Cn2nc(SC)c(S(=O)(=O)c3ccccc3)c2N)cc1	?	-34%
COc1ccc(C(C)=O)cc1CSc1nc(NCCc2ccccc2)c2ccccc2n1	?	-1%
Cc1c(Cl)cccc1NC(=O)c1cc(S(=O)(=O)N2CCCCC2)cn1C	?	?

Exported bar-delimited: 2 of the compounds above.
SMILES | PMP22 txn prim | HTT promoter inh
CCC1CN(C(=O)N2CCC(C(=O)NCc3cccs3)CC2)c2ccccc2O1 (centres undefined) | -4% | -25%
O=C(CN1C(=O)COc2ccc(S(=O)(=O)N3CCCC3)cc21)NCCc1ccc(Cl)cc1 | -31% | -26%

(listing goes on)
SMILES	PMP22 txn prim	HTT promoter inh
CCCNC(=O)c1ccc2nc(CCc3ccccc3)oc2c1	-7%	10%
CC(=O)Nc1c(C)nn(-c2ccccc2)c1N1CCC(C(=O)NCc2ccc(Cl)cc2)CC1	0%	-9%
Cc1cccc(NC(=O)CSc2nc3ccc(NC(=O)CCc4ccccc4)cc3s2)c1	?	-19%
Cc1ccc2c(CN3CCN(C(=O)c4ccc(F)cc4)CC3)cc(=O)oc2c1	-4%	-10%
COc1ccc(NC(=O)Cn2c(SCc3ccc(C)cc3)nc3cccnc32)c(OC)c1	?	-28%
CCOc1ccc(C(=O)Nc2ccc3nc(N(CC)CC)cc(C)c3c2)cc1	3%	?
COc1ccc(S(=O)(=O)N(CC(=O)Nc2ccc(C)cc2)c2ccc(C)cc2)cc1OC	-21%	-5%
COC(=O)c1ccc(Cn2nnc3sc4c(c3c2=O)CCCC4)cc1	-2%	27%
Cc1cccc(C(=O)NCCc2nc3ccccc3n2Cc2ccc(Cl)cc2)c1	-23%	-12%
Cc1cccc(CNC(=O)Cn2c(-c3cccs3)cc3ccccc32)c1	-6%	-30%
O=C(NCc1ccccc1F)C1CCN(c2nn3cc(-c4ccc(F)cc4)nc3s2)CC1	0%	12%
CCc1ccc(CNC(=O)c2sc3ncnc(N(C)C4CCCCC4)c3c2C)cc1	-29%	-29%
CCOc1ccccc1NC(c1nnc(-c2ccccc2)o1)c1ccc(F)cc1Cl (centres undefined)	?	-27%
CC(C)[C@H](CO)Nc1nc(Nc2ccc(C(=O)O)c(Cl)c2)c2ncn(C(C)C)c2n1	.	-5%
Cc1cc(C)c2oc(C(=O)Nc3ccc(S(=O)(=O)N4CCCCCC4)cc3)cc(=O)c2c1	1%	0%
COc1cccc(Cn2c(=O)n(CCc3ccccc3)c(=O)c3c2c2cc(OC)ccc2n3C)c1	-8%	-1%
CCOc1ccc(CN2CCN(S(=O)(=O)c3ccc(Cl)cc3)CC2)cc1	-15%	?
Cc1cc(C(=O)Nc2ccc(Cl)cc2)c2c(C)nn(-c3ccccc3)c2n1	-3%	?
Cc1ccc(OCC(=O)Nc2ccc3nc(SCC(=O)Nc4ccc(C)cc4C)sc3c2)cc1	?	9%
COc1ccc(CNC(=O)c2nnn(CC(=O)Nc3cc(C)cc(C)c3)c2N)cc1	-18%	?
Cc1cc2c(cc1NS(=O)(=O)c1ccc(NC(=O)CC(C)C)cc1)n(C)c(=O)c(=O)n2C	?	?
CC(=O)N1CCc2c(sc3c2c(=O)n(Cc2ccccc2)c(=O)n3Cc2cc(C)ccc2C)C1	-4%	-1%
Cc1ccc(S(=O)(=O)Nc2cccc(-c3cn4cccc(C)c4n3)c2)c(C)c1	-7%	-25%
O=C(COc1ccccc1F)Nc1ccc2nc(SCC(=O)N3CCCC3)sc2c1	-48%	14%
COc1ccc(N2CCN(Cc3cc(=O)oc4ccc(OC)cc34)CC2)cc1	-8%	-8%
Cc1cc(F)ccc1NC(=O)C(c1ccccc1)N1Cc2ccccc2C1=O (centres undefined)	1%	-13%
CCOC(=O)N1CCN(Cc2nc3cc(NC(=O)c4ccc(OC)cc4)ccc3n2C(C)C)CC1	?	?
Cc1c(C(=O)Nc2ccc(C(=O)O)cc2)nnn1-c1ccccc1	15%	2.5µM*
CCOc1ccc(NCc2cccn2-c2nnc(N3CCC(C(=O)NCc4ccc(C)cc4)CC3)s2)cc1	?	14µM*
CCC(=O)N1CCc2cc(Br)cc(S(=O)(=O)CCC(=O)NCCc3ccc(C)cc3)c21	-4%	2%
COc1cccc(CNC(=O)C(NS(=O)(=O)c2cccs2)C(C)C)c1 (centres undefined)	-13%	-12%
CCOc1ccc(-c2oc3cc(Cl)ccc3c(=O)c2O)cc1OC	?	8%
CCOC(=O)c1ccc(N2C(=O)c3[nH]nc(-c4ccc(C)cc4)c3C2c2cccc(F)c2)cc1 (centres undefined)	?	?
CC(=O)c1ccc(NC(=O)CSc2ccc3nc(-c4ccccc4)cn3n2)cc1	-10%	?
O=S(=O)(c1ccc(Cl)cc1)c1nc(-c2cccs2)oc1SCc1ccccc1F	-12%	?
CC(=O)c1ccc(NC(c2ccc(F)cc2)c2nnc(-c3ccccc3)o2)cc1 (centres undefined)	10%	2%
CCOC(=O)c1cnc2c(ccc3ccccc32)c1Nc1ccccc1O	-15%	8%
O=C(CSc1nnc(-c2ccccc2)o1)N1CCCc2ccccc21	-9%	26%
Cc1ccc(CCNC(=O)CN2C(=O)COc3ccc(S(=O)(=O)N4CCCC4)cc32)cc1	-18%	-21%
COc1cccc(OCc2nc3ccccc3n2CCOc2ccccc2C)c1	-12%	-30%
Cc1ccc(NC(=O)Cn2c(=O)n(CC3CCCO3)c(=O)c3ccccc32)cc1 (centres undefined)	4%	-14%
Cc1cc(C)c2c(n1)nn1c(C)c(CCC(=O)Nc3cccc(C)c3C)c(C)nc21	-14%	13%
